RecA intein inh: Mtb RecA intein splicing inhibitors, primary screen, biochemical, fluorescence, HTS. AID 2221, 2009. hit rate 0.75% among 290,000. inhibition, %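 (about 9 µM by stock and volumes)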. cell-free RecA intein splicing. Protein RecA (Mycobacterium tuberculosis (strain ATCC 25618 / H37Rv)), P9WHJ3; in the data active = inhibition above about 30%; inconclusive = no clear call, values can overlap the other calls;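 note: 0% = vehicle wells and 100% = reference inhibitor control wells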
Target sequence (P9WHJ3 whole entry, looked up): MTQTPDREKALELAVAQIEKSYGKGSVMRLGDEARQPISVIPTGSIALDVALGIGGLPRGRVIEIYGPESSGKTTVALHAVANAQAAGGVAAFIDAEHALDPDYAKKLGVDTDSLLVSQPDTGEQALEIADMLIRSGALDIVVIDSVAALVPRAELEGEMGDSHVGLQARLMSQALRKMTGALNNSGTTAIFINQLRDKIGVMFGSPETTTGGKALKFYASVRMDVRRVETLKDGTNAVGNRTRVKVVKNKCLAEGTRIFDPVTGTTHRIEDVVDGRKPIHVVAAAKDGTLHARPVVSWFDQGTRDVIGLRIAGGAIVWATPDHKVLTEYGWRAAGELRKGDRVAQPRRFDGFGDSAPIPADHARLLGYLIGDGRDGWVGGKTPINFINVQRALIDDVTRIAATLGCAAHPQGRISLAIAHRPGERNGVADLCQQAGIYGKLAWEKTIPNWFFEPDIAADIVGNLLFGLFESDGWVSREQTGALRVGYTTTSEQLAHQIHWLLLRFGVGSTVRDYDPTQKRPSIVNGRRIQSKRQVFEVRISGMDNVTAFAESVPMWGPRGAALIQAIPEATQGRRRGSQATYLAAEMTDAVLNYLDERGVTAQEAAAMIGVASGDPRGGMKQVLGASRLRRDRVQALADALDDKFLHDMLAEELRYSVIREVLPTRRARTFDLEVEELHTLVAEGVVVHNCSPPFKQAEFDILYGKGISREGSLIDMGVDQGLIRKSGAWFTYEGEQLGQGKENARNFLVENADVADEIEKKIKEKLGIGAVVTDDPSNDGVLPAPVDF
YopH inh: YopH tyrosine phosphatase inhibitors, primary screen, biochemical, fluorescence Ex485/Em525; YopH tyrosine phosphatase [Yersinia enterocolitica]; inhibition, %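 (about 10 µM by stock and volumes)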; hit rate 0.16% among 140,000; AID 898, 2007;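 active = inhibition of 50% or more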;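 note: controls were vehicle for no effect and minimum signal wells for full effect; inactives centre near -20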
Mtb H37Rv: M. tuberculosis H37Rv growth inhibitors, H37Rv strain (AID 1626); M. tuberculosis H37Rv growth inhibition; higher % means a stronger effect; inhibition, % at 10 µM; hits with a dose series show IC50 in µM; hit rate 0.95% among 220,000;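 active = confirmed in a dose series; inconclusive = inhibition above 80% but not taken into the dose series; inactive = below 80% or under 30% at every dose of the series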;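 note: bacteria incubated seven days before Alamar blue readout; 0% = bacteria only wells and 100% = bacteria with antibiotic wells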
Mtb bLac sens: beta-lactam sensitization of Mtb H37Rv, H37Rv; M. tuberculosis H37Rv growth with meropenem, percent inhibition; hits of this screen are not shown here; hit rate 0.27% among 330,000; inhibition, % at 25 µM;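 active = about 74% or more and at least 40 points above the plate without the antibiotic, then above 30% in a dose series; inconclusive = first-round hits that could not be retested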;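 note: growth measured after seven days incubation then overnight dye step; 0% = bacteria only wells and 100% = bacteria with antibiotic; twin plates without the antibiotic show which effects depend on it; some results filed as inactive read as strong as hits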
Arbovirus anti: antivirals against arbovirus infection, primary screen, cell-based, full library, 10K replicate subset | arbovirus infection cell-based antiviral screen | inhibition, % at 10 µM | hit rate 0.37% among 200,000;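 active = inhibition from about 30%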;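 note: bluetongue infection of BSR cells; cell survival read as ATP light after 72 h; 0% = infected wells without compound and 100% = uninfected wells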
Arbovirus anti repeat: also measured in Arbovirus anti; calls as there; inhibition, %; measured here: 10K subset replicate screen; many hits read low in the repeat;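 first of two repeat runs on a subset; 0% = infected and 100% = uninfected wells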
* hit, by the source's call; ? = inconclusive; · = not tested or not shown. These rows are one share of the data; count on the stated rates, not on these rows.

SMILES	RecA intein inh	YopH inh	Mtb H37Rv	Mtb bLac sens	Arbovirus anti	others
O=C(COc1ccccc1[N+](=O)[O-])Nc1cccc(S(=O)(=O)NC2=NCCCCC2)c1	2.0	·	·	-2	·
CCOC(=O)c1cc(S(=O)(=O)Nc2ccc(OC)cc2OC)cn1C	1.6	·	·	-7	·
O=C(O)c1ccc(C=C(c2nc3ccccc3s2)c2nc3ccccc3s2)cc1	8.0	·	2%	-12	-34
O=C1CCCCN1CCCC(=O)N1CCCC(Nc2ccc(F)c(F)c2)C1 (stereo unspecified)	1.0	·	·	-10	·
CC1CCCCN1C(=S)NCc1ccccc1 (stereo unspecified)	-1.0	4	5%	-3	8
O=C(O)c1ccc(NS(=O)(=O)c2ccc(N3CCCC3)c([N+](=O)[O-])c2)cc1	-2.4	·	·	-8	·
CC(C)NS(=O)(=O)c1cc(F)ccc1CN1C(=O)c2cccnc2C1=O	-1.1	·	·	3	·
Clc1ccc(OCCn2cnc3ccccc32)cc1	3.1	28	6%	8	16
CC1C=CCC2C(=O)N(c3cccc(C(=O)Nc4ccc(Br)cc4)c3)C(=O)C12 (stereo unspecified)	2.7	·	·	8	·
CCn1nc(C)cc1C(=O)N1CCCC(C(=O)c2ccc(Oc3ccccc3)cc2)C1 (stereo unspecified)	8.7	·	·	-2	·
NS(=O)(=O)c1ccc(CCNCC(=O)N2CCC(Cc3ccccc3)CC2)cc1	1.0	·	8%	-10	·
COc1ccc(-c2ccc(SCC(=O)Nc3cccc(C(C)=O)c3)nn2)cc1OC	1.9	·	2%	-1	-3
COCCn1c(SCc2cnc(-c3ccccc3)s2)nnc1-c1ccncc1	2.3	-40	4%	-6	15
CCc1ccc(-c2cc(C)no2)cc1S(=O)(=O)N1CCN(c2cccc(C)c2C)CC1	7.2	·	·	4	·
C/C(=N\NS(=O)(=O)c1ccc(C)cc1)c1ccc(C)o1	-3.6	·	5%	-7	0
Cc1nn(Cc2c(F)c(F)c(F)c(F)c2F)c(C)c1NC(=O)c1ccc(COc2ccccc2Cl)o1	-7.9	8	·	16	-39
COC(=O)c1ccccc1NC(=O)CN1CCCCC1	0.3	·	0%	-2	-3
COc1cccc(NC(=O)CN(c2cccc(F)c2)S(C)(=O)=O)c1	-2.1	-21	-8%	2	4
Cc1ccc([N+](=O)[O-])cc1NC(=O)Cc1ccc(F)cc1	4.3	·	-4%	-11	-3
CCCCNC(=S)NNC(=O)CCn1cc(C)cn1	-0.5	-29	-4%	0	3
COc1ccc(-c2cc(=O)oc3cc(OC(C)C(=O)NCC4CCC(C(=O)O)CC4)ccc23)cc1 (stereo unspecified)	29	·	·	0	·
O=c1cc(CSc2ccccc2)[nH]c(=S)[nH]1	-4.4	-37	-6%	-7	4
CN1CCN(C2=C(Cl)C(=O)N(CCc3ccccc3)C2=O)CC1	2.5	23	-5%	8	15
CCCC1Cc2nc(Cl)c(C#N)cc2CO1 (stereo unspecified)	1.7	·	-2%	-10	·
O=C(CCN1C(=O)c2ccccc2C1=O)NC(=S)Nc1cccc(Cl)c1	3.3	-15	-4%	-7	1
COC(=O)c1nc2n(n1)C(c1ccc(OC)c(OC)c1)C(C(=O)OC1CCCCC1)=C(C)N2 (stereo unspecified)	-2.1	-15	-7%	5	-3	Arbovirus anti repeat=-1
CCOC(=O)c1nnsc1N	-1.6	·	-6%	-5	·
O=C(NNC(=O)c1ccco1)c1ccccc1	0.8	-36	-7%	11	1
Cc1cccc(/C=N/NC(=O)C2CCCNC2=O)c1 (stereo unspecified)	-3.2	-34	2%	4	5
CCCCC1CCC(C(=O)OCC(=O)N(CCOC)c2c(N)n(Cc3ccccc3)c(=O)[nH]c2=O)CC1 (stereo unspecified)	3.0	·	·	-13	·
O=C(c1cccnc1)N(Cc1ccccc1)c1ccccc1	-1.9	-11	2%	·	-1
C/C(=N/Nc1nc(C)cc(-c2ccccc2)n1)c1ccco1	-4.4	-30	7%	32	3
COc1cccc2c1OC1(C)CC2N(C(=O)c2ccco2)C(=S)N1c1ccc(F)cc1 (stereo unspecified)	-1.3	-40	3%	1	8
COc1ccc(C2CC(c3ccccc3)Nc3nc(NC(=O)c4ccco4)nn32)cc1 (stereo unspecified)	2.1	-53	-6%	-1	-8
COc1ccc(S(=O)(=O)N2CCC(C(=O)NCCc3ccccc3)CC2)cc1	2.0	·	·	3	·
CCOC(=O)c1c(C)[nH]c(C(=O)COC(=O)COc2ccc(OC)cc2)c1C	-3.5	-3	2%	4	2
Oc1cc(-n2cccn2)c(O)cc1-n1cccn1	-89	·	4%	0	·
Cc1ccc(OCCCCCCN2CCNCC2)c(Br)c1	3.6	·	·	-4	·
O=C(Cn1c(=O)n(CCCC(=O)NC2CCCC2)c(=O)c2ccccc21)NCCC1=CCCCC1	1.1	-34	6%	84	-11
C[N+]1(CCCOC(=O)C2(c3ccccc3)CCCC2)CCOCC1	-0.2	-10	1%	-1	1
O=C(c1ccc2c(c1)OCO2)C1CCCN(C(=O)NCc2ccccc2)C1 (stereo unspecified)	·	·	2%	-1	-5
Cc1ccc(NC2CCCN(C(=O)c3cn4cccc(C)c4n3)C2)cc1C (stereo unspecified)	-1.9	·	·	3	·
CCCSc1nnc(NC(=O)c2nc(SC)ncc2Cl)s1	1.4	3	-3%	50	29
COc1cccc(-n2nnc3c(=O)n(Cc4ccc(Br)cc4)cnc32)c1	-8.5	-11	3%	-6	4
COc1ccc(NC(=O)C2CCN(c3ncnc4c3nc3n4CCCCC3)CC2)c(OC)c1	-4.1	·	·	-1	·

A portion of the results above:
SMILES	RecA intein inh	YopH inh	Mtb H37Rv	Mtb bLac sens	Arbovirus anti	others
O=C(c1cccnc1)N(Cc1ccccc1)c1ccccc1	-1.9	-11	2%	·	-1
C/C(=N/Nc1nc(C)cc(-c2ccccc2)n1)c1ccco1	-4.4	-30	7%	32	3
COc1cccc2c1OC1(C)CC2N(C(=O)c2ccco2)C(=S)N1c1ccc(F)cc1 (stereo unspecified)	-1.3	-40	3%	1	8
COc1ccc(C2CC(c3ccccc3)Nc3nc(NC(=O)c4ccco4)nn32)cc1 (stereo unspecified)	2.1	-53	-6%	-1	-8
COc1ccc(S(=O)(=O)N2CCC(C(=O)NCCc3ccccc3)CC2)cc1	2.0	·	·	3	·

Arranged by formula weight (highest first): three of the compounds above.
SMILES	RecA intein inh	YopH inh	Mtb H37Rv	Mtb bLac sens	Arbovirus anti	others
COc1cccc2c1OC1(C)CC2N(C(=O)c2ccco2)C(=S)N1c1ccc(F)cc1 (stereo unspecified)	-1.3	-40	3%	1	8
COc1ccc(C2CC(c3ccccc3)Nc3nc(NC(=O)c4ccco4)nn32)cc1 (stereo unspecified)	2.1	-53	-6%	-1	-8
O=C(c1cccnc1)N(Cc1ccccc1)c1ccccc1	-1.9	-11	2%	·	-1

New compounds follow:
SMILES	RecA intein inh	YopH inh	Mtb H37Rv	Mtb bLac sens	Arbovirus anti	others
CCO[C@H]1OC(C(=O)N2CCCCCCC2)=C[C@@H](c2ccccc2)[C@@H]1CCCO	1.4	·	·	-6	0
Cc1ccc2[nH]c(C(=O)N3CCN(C=O)CC3)cc2c1	0.1	·	·	1	·
CC(=O)Nc1cccc(-c2csc(Nc3cc(C)ccn3)n2)c1	-0.1	-31	20%	11	17
COc1ccc(/C=C2\SC(=Nc3ccccc3OC)NC2=O)cc1	6.0	·	·	9	·
COc1ccc(CC(=O)NCc2n[nH]c(=S)n2-c2cccc(C)c2)cc1	1.5	·	-2%	-7	0
Cc1ccc(SCC(=O)NCc2cccnc2)cc1	0.6	3	-4%	13	9
COc1ccc(S(=O)(=O)NC2CCSc3ccccc32)cc1NC(C)=O (stereo unspecified)	-0.4	·	·	4	·
COCCSc1ccccc1C(=O)Nc1ccc(Br)cc1	5.1	·	4%	72	12
COc1ccc(OCC(=O)NC(=S)NNC(=O)COc2ccc(Br)cc2Cl)cc1	·	·	0%	2	1
CSc1nnc(C)c(=O)[nH]1	0.3	1	-12%	-10	5
CN(CCCC1CCCC1)C(=O)CCc1nnc(-c2ccccc2)o1	0.1	·	10%	90	4
C=CCN(C(=O)CNS(=O)(=O)c1ccccc1)C(C(=O)NCCOC)c1cccnc1 (stereo unspecified)	-1.3	·	·	-4	·
COc1ccc(CC(=O)N(CCC2=CCCCC2)c2c(N)n(Cc3ccccc3)c(=O)[nH]c2=O)cc1OC	4.9	·	·	-2	·
S=C(Nc1cccc(Cl)c1)N1CCN(c2ccccn2)CC1	-2.4	·	·	-10	·
CC1CCN(S(=O)(=O)c2ccc(C(=O)Nc3ccccn3)cc2)CC1	1.8	·	·	-9	·
Cc1cccc(OCC(=O)O/N=C(\N)c2ccc(Cl)cc2)c1	1.7	-26	-1%	-1	3
CN1/C(=C\C(=O)COC(=O)c2ccc(O)c(O)c2)C(C)(C)c2ccccc21	4.9	·	-7%	2	4
CCOC(=O)C(O)(c1ccc(N(CC)C(=O)OC)cc1)C(F)(F)F (stereo unspecified)	1.2	-7	-3%	-4	0
Cc1ccc(-n2nc(C)c3c(C)c(CCC(=O)NCCCOC(C)C)c(C)nc32)cc1	-1.3	·	·	5	·
Cc1ccnc(NC(=O)CCCOc2cc(=O)n(C)c3ccccc23)c1	1.8	-6	-6%	5	-14
CCOCCCNC(=O)CC1Oc2ccc(C)cc2NC1=O (stereo unspecified)	-0.7	-30	-10%	?	2
CCC(Oc1ccccc1)C(=O)Nc1ccccc1C(=O)N1CCOCC1 (stereo unspecified)	-8.7	·	·	-5	·
Cc1n[nH]c(C)c1S(=O)(=O)Nc1ccc2c(c1)OCCO2	5.8	-22	0%	-4	-1
Cc1ccc2nc(-c3ccc(NC(=O)CN4CCN(C(=O)c5ccco5)CC4)cc3)sc2c1	-2.0	-38	10%	10	1
O=C(CSc1ncccn1)n1c2c(c3ccccc31)CCCC2	2.4	-25	-9%	4	8
CCOc1ccccc1-n1nnnc1SCC(=O)O	-11	·	-8%	-13	·
CCOc1ccccc1NC(=O)CSc1nc(=O)n(CCCN2CCOCC2)c2c1CCCC2	1.6	·	·	-4	·
O=C(NCc1ccc(F)cc1)C1CCCN1C(=O)Nc1cccc(F)c1 (stereo unspecified)	-1.0	·	·	-2	·
Cc1ccccc1C(=O)c1cccn1CC(=O)NCCC1=CCCCC1	-0.7	·	9%	-8	-11
O=C(CSc1ccccc1)Nc1nnc(-c2ccco2)o1	1.0	·	·	-14	·
CCOC(=O)C1(CCOc2ccccc2)CCN(Cc2ccc(-n3cccn3)cc2)CC1	5.7	·	5%	78	-28
COc1ccc(CCNC(=O)C2CCCN(c3ncnc4c3nc3n4CCCCC3)C2)c(OC)c1 (stereo unspecified)	0.9	·	·	0	·
CCOC(=O)C1(Cc2ccccc2C(F)(F)F)CCN(C(C)CSC)CC1 (stereo unspecified)	-0.7	·	-17%	-11	-12
CC(=O)CSc1ccc(-c2nc3ccccc3[nH]2)cn1	1.5	·	·	0	·
O=C(O)C1CCN(c2ncccn2)CC1	-1.2	-34	-10%	-2	0
COCCCNC(=S)Nc1ccc(C)cc1[N+](=O)[O-]	-4.5	·	-11%	-5	-1
CCOC(=O)C(CCCCCOc1ccccc1[N+](=O)[O-])C(=O)OCC	7.8	-12	1%	3	-5
CCOc1ccccc1CN1CCN(C2CCSCC2)CC1CCO (stereo unspecified)	-1.0	·	-8%	-11	-2
O=C(c1cc(-c2ccccc2)n[nH]1)N1CCc2c([nH]c3ccccc23)C1c1ccccn1 (stereo unspecified)	11	·	45%	75	-8
Cc1ccc(-c2nn(Cc3ccccc3)cc2/C=C/C(=O)O)cc1	-1.6	2	7%	9	1
C/C(=N/NC(=O)c1cc(C)[nH]n1)c1ccncc1	2.3	·	·	4	·
O=[N+]([O-])c1ccc2sc(SCc3nc4ccccn4c3Br)nc2c1	1.4	-38	-4%	10	-2
Cc1ccccc1-c1nnnn1C1CCS(=O)(=O)C1 (stereo unspecified)	0.4	·	-6%	-9	-2
CC1CCCC(C)N1C(=O)c1ccc(S(=O)(=O)NCc2ccco2)cc1 (stereo unspecified)	-2.7	·	·	3	·
O=C(NC(=O)c1ccccc1F)OCc1ccc(Cl)cc1Cl	4.4	·	-11%	-13	·
CCOC(=O)c1csc(NC(=O)COc2ccc(Cl)cc2Cl)n1	-0.4	-28	-8%	-1	14
O=C(c1ccc(Cl)cc1)c1cnc(Nc2ccccc2Cl)s1	-1.7	17	1%	1	-33
Cc1ccc(NC(=O)c2cnccn2)nc1	-0.8	·	·	7	·
COc1ccc(NC(=O)c2sc3ncn(CC(=O)N4CCCCC4)c(=O)c3c2C)cc1OC	5.0	·	·	3	·
CN(C)c1ccc(CN(Cc2ccco2)C(=O)c2ccco2)cc1	0.5	·	·	15	·
O=C(NCc1ccccc1)c1ccc(S(=O)(=O)N2CCCc3ccccc32)cc1	5.6	-35	-10%	-4	-3

High-throughput results deposited in PubChem BioAssay by several laboratories.
